# ALR H2O2 inh: human ALR oxidase inhibition via reduced H2O2 | inhibition, % (no concentration beside the values) | purified ALR, DTT oxidation, H2O2 HRP-luminol luminescence | P55789 | 290,000 tested, 3.8% active;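 active = mean and each replicate at 75% or more; inconclusive = only one of the two met; inactive = neither met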;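 note: stock transfer was 7.5 nL into about 7.5 µL; 0% = neutral wells and 100% = wells with inactivated enzyme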
# Target sequence (P55789 whole entry, looked up): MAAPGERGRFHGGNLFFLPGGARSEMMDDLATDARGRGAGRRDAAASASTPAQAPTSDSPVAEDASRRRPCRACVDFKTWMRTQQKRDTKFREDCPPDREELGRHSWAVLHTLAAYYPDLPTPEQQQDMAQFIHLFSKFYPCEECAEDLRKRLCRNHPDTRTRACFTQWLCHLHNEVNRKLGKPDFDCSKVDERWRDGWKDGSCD
# HNF4A DNA FP: change in binding of human HNF4 alpha to DNA | P41235 | HNF4a-FITC DNA binding, fluorescence polarization, 1 h | activity change, % at 10 µM | 360,000 tested, 0.3% active | AID 1224865; in the data active = activity change above about 30%, passing the limit was not always enough;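 note: controls were the assay level and a saturating level of protein; the project sought stronger binding though the title names inhibitors; some compounds called inactive have numbers as strong as hits; positive values seem to mean higher polarization but the record does not say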
# Target sequence (P41235 whole entry, looked up): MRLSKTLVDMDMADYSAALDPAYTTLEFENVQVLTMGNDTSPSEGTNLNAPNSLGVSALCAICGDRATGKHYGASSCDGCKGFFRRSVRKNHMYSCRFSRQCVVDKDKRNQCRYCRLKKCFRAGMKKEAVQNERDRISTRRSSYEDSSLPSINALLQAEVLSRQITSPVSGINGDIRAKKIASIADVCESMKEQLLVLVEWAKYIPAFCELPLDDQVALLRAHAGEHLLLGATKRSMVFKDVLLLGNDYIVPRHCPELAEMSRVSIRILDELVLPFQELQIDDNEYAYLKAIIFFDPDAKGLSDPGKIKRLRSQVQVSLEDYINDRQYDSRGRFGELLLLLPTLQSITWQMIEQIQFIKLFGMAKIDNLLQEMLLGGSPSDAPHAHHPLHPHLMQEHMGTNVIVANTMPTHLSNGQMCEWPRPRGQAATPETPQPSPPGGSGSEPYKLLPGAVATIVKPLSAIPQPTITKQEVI
# RanGTP-Impb inh: disruptors of Ran-importin-beta complex formation – biochemical, FRET, CFP-Ran, YFP-importin-beta, homogeneous, primary screen. inhibition, % (test concentration not listed). cell-free CFP-Ran/YFP-importin-beta FRET ratio. 300,000 tested, 1.1% active;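 active = most replicates above 15%; inconclusive = exactly half above 15%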;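 note: 0% = DMSO wells and 100% = Ran loaded with GDP instead of GTP; wells of about 40 µL received 100 nL stock; the first replicate is given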
# LANA-H2B inh: blocks KSHV LANA binding to histone H2A/H2B; 320,000 tested, 0.6% active; Q9QR71; inhibition, % (no concentration beside the values); cell-free LANA-H2A/H2B peptide, fluorescence polarization; in the data active = inhibition mostly above about 10%, no sharp cut-off; inactive = mostly below about 6.7%;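 note: stock transfer was 7.5 nL into about 10 µL; 0% = median of vehicle wells and 100% = median of positive control wells; one replicate is shown; the record names a cut of 25% in any replicate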
# Calb FLC: affects C. albicans growth with fluconazole; AID 1979; C. albicans CaCi-2 (fluconazole-resistant clinical isolate) + fluconazole, Alamar Blue growth, 48 h; growth inhibition, % (test concentration not listed); 300,000 tested, 0.57% active;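 active = most replicates above 75%; inconclusive = exactly half above 75%; inactive = most below 75%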;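 note: all wells also contain fluconazole at 8 µg/ml as a sub-toxic cotreatment; 0% = median of DMSO wells and 100% = median of geldanamycin control wells; wells of about 8 µL received 7.5 nL stock; the first replicate is given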
# Vif A3G: HIV-1 Vif–A3G interaction blockers – biochemical, TR-FRET, GST-Vif 1-94, biotin-A3G peptide, dose response retest, primary screen (AID 1117319); TR-FRET GST-Vif / biotin-A3G peptide binding; higher % means a stronger effect; test concentration not given here; strong numbers were not always called active; one-dose inhibition, %; IC50 in µM for titrated hits; 260,000 tested, 0.57% active;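 active = above the screen mean plus three standard deviations and confirmed in dose response; inconclusive = results disagree or hit not tested in dose response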;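 note: Vif residues 1-94 fused to GST binding biotinylated APOBEC3G peptide 110-148; 0% = full assay without inhibitor and 100% = GST in place of GST-Vif; retest series ran down from 100 µM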
# B2AR ag: activates human beta-2 adrenergic receptor causing internalization | P07550 | Am2.2-beta2AR cells, FAP receptor internalization, flow cytometry; reference of the scale not given here | response, % (test concentration not listed) | 340,000 tested, 0.43% active;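 active = response above a set limit, near 3 SD of response in nonfluorescent compounds, cut at about 42% in these data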;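 note: stock transfer was 100 nL into about 11 µL; a reference agonist was the positive control; negative values mostly stem from fluorescent compounds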
# * = called active by the depositor; ? = inconclusive; . = not tested or not shown. Hits appear at their usual frequency; overall some 6.3% were active at least once.
SMILES,ALR H2O2 inh,HNF4A DNA FP,RanGTP-Impb inh,LANA-H2B inh,Calb FLC,Vif A3G,B2AR ag
CC(=O)c1cccc(N=Nc2c(-c3ccccc3)[nH]n(-c3ccccc3)c2=O)c1,-9,-2.1,-4.3,-0.9,-1,-5%,-1
CCN(CC)CCCn1c2c(c(SCC(=O)N3CCc4ccccc43)nc1=O)CCC2,-6,4.0,-3.7,-2.3,-5,-13%,18
COc1cccc(NC(=O)CSc2nc3scc(C)c3c(=O)[nH]2)c1,-13,5.6,0.7,-1.4,-10,.,9
CC(OC(=O)CCN=C1NS(=O)(=O)c2ccccc21)C(=O)N(C)c1ccccc1 (stereo not given),1,-2.2,-5.6,4.6,-1,-2%,5
O=C(NNS(=O)(=O)c1ccc(Cl)cc1)c1cnn(-c2ccccc2)c1-n1cccc1,37,1.2,3.0,-0.8,-3,-5%,4
FC(F)(F)c1cccc(NC(=S)NCC2COc3ccccc3O2)c1 (stereo not given),-8,-1.0,-2.5,-5.5,-60,4%,6
Cc1ccsc1/C=C(\C(=O)c1ccc(OC(C)C)cc1)c1nc2ccccc2o1,-10,5.1,3.3,11*,13,0%,29
O=C1CCC(c2ccc3c(c2)CCC3)=NN1,.,0.4,0.3,-0.6,2,-8%,-7
CCCCn1nnnc1SCC(=O)c1ccccc1F,27,5.4,?,-6.0,0,-4%,-9
COC(=O)c1ccc(NC(=O)COc2cccc3c2OC(C)(C)C3)cc1,-4,1.1,1.4,4.3,-1,-2%,3
CC1(C)CC(=O)C=C(c2ccc(F)nc2)C1,6,4.6,.,1.7,.,.,-4
O=C(CSc1nnc(Cn2cnc3ccccc32)o1)c1ccccc1,29,1.1,0.8,-1.3,-11,?,-3
O=[N+]([O-])c1cccc(COc2ccc(CN3CCOCC3)cc2)c1,.,-0.9,.,.,.,1%,-9
COc1ccc(N2CCN(C(=S)Nc3cc(C)cc(C)c3)CC2)cc1,4,2.4,?,-1.4,26,-2%,-4
CCc1cc(=O)oc2cc(C)cc(OC(C)C(=O)NCc3cccnc3)c12 (stereo not given),-7,1.6,-0.2,4.6,-7,.,4
Cc1ccc(Cc2cnc(NC(=O)c3cccs3)s2)cc1,5,-1.2,1.0,3.2,8,-2%,-10
COc1ccc(C2=NO[C@@H]3C(=O)N(c4ccc(C)cc4C)C(=O)[C@H]23)cc1OC,.,-0.8,8.2,-2.6,-2,66%,2
CC(CN1CCCC1)OC(=O)c1ccccc1Cl (stereo not given),-7,-7.7,-4.8,-1.2,-8,.,-14
Nc1nc2n(n1)C(c1ccco1)CC(c1ccc(F)cc1)N2 (stereo not given),3,1.2,5.9,-5.9,2,1%,2
S=C(NCCCN1CCOCC1)N1CCN(c2cccc(Cl)c2)CC1,.,-1.8,-0.6,5.9,3,.,7
CCOC(=O)CSc1nc2cc(OC)ccc2cc1C#N,.,1.4,1.7,0.0,-4,-164%,5
COc1ccc(CNCC(O)(c2ccc(F)cc2)c2ccc(F)cc2)cc1,-25,1.7,2.9,-1.2,-6,-2%,1
Oc1ccccc1-c1cc(-c2ccc(Cl)cc2)n[nH]1,.,0.0,-4.2,-2.2,-25,-5%,-13
CN(C)S(=O)(=O)c1cccc(NC(=O)COC(=O)/C=C/c2cccs2)c1,-9,0.3,-2.5,2.2,-6,9%,2
Nc1ccc(C(CC(=O)O)n2cccc2)cc1 (stereo not given),0,-6.9,-5.6,-3.5,-8,2%,5
Cc1nnc(SCC(C)C)[nH]c1=O,20,0.3,-3.2,-2.0,1,3%,-2
Cc1ccc2c(c1)c1c3n2CCN(C(=O)C2CC2)C3CCC1 (stereo not given),-26,-0.4,-15,1.5,11,14%,8
CC(=O)c1cccc(OCc2cc(C(=O)NCCC3=CCCCC3)no2)c1,2,1.4,2.9,-1.7,0,.,-8
Cc1[nH]ncc1-c1nc2ccccc2[nH]1,.,-1.7,7.9,-1.2,8,.,-3
Cc1nc(C)c(C(=O)NNS(=O)(=O)c2ccc([N+](=O)[O-])cc2)s1,.,-5.1,-1.0,-1.6,-5,-9%,11

# Quoted at random: three compounds from above
SMILES,ALR H2O2 inh,HNF4A DNA FP,RanGTP-Impb inh,LANA-H2B inh,Calb FLC,Vif A3G,B2AR ag
Nc1ccc(C(CC(=O)O)n2cccc2)cc1 (stereo not given),0,-6.9,-5.6,-3.5,-8,2%,5
CC(OC(=O)CCN=C1NS(=O)(=O)c2ccccc21)C(=O)N(C)c1ccccc1 (stereo not given),1,-2.2,-5.6,4.6,-1,-2%,5
CCN(CC)CCCn1c2c(c(SCC(=O)N3CCc4ccccc43)nc1=O)CCC2,-6,4.0,-3.7,-2.3,-5,-13%,18

# Further results
SMILES,ALR H2O2 inh,HNF4A DNA FP,RanGTP-Impb inh,LANA-H2B inh,Calb FLC,Vif A3G,B2AR ag
CCOc1ccccc1-n1nnnc1SCC(=O)NCC1(N2CCOCC2)CCCCC1,.,-6.3,.,-0.4,.,.,6
N/C(=N\c1nc(CSc2nc3ccccc3s2)cc(=O)[nH]1)Nc1ccc(F)cc1,.,-1.0,1.5,7.3,-3,-16%,-15
CCn1c(C)nnc1SCC(=O)Nc1ccc2c(c1)OCCO2,-3,1.4,3.7,-1.4,3,-9%,-3
Cc1ccccc1OCCN(C#N)c1nc(N(C)C)nc(N(C)C)n1,-9,-3.4,3.7,1.9,4,.,-1
Cc1nc2ccc(NC(=S)NC3CCCCC3)cc2nc1C,.,2.9,3.9,3.3,55,-4%,5
COc1ccccc1NC(=O)c1ccc(C(=O)c2ccccc2)o1,.,0.9,-2.8,-2.1,44,.,-10
CCOc1ccc(N2C(=O)Cc3ccccc3C2=O)cc1,9,-1.7,5.2,5.6,4,.,31
O=C(CSc1cccc2cccnc12)Nc1ccccc1F,-10,3.8,?,2.6,4,2%,13
O=CN(CCNc1ccccc1)c1ccccc1,.,1.1,.,.,.,7%,-1
O=C(NCC(=O)N1CC=C(c2ccccc2)CC1)c1ccco1,-1,0.1,-1.8,0.1,0,-5%,-8
CC(OC(=O)Cc1n[nH]c(=O)c2ccccc12)C(=O)Nc1ccc(F)cc1 (stereo not given),-1,3.8,6.2,0.4,5,-3%,-1
CCSc1ccc2nnc(-c3cccs3)n2n1,-2,0.1,3.2,-0.2,-23,0%,-5
Cc1cccc(OCCCCCn2ccnc2)c1C,-6,1.4,1.9,0.0,-17,3%,-6
Cc1cc(C)cc(N(CC(=O)O)S(=O)(=O)c2c(C)[nH]c(=O)[nH]c2=O)c1,-2,-1.8,2.4,-0.2,-1,0%,2
COCCNC(=S)NCCc1ccc(Cl)cc1Cl,-11,3.2,1.3,1.0,-27,-8%,-6

# Looked up above.
# HNF4A DNA FP, `Cc1cc(C)cc(N(CC(=O)O)S(=O)(=O)c2c(C)[nH]c(=O)[nH]c2=O)c1` : -1.8
# HNF4A DNA FP, `Cc1ccccc1OCCN(C#N)c1nc(N(C)C)nc(N(C)C)n1` : -3.4

# Later entries.
SMILES,ALR H2O2 inh,HNF4A DNA FP,RanGTP-Impb inh,LANA-H2B inh,Calb FLC,Vif A3G,B2AR ag
CCOC(=O)N/N=C/c1c(F)c(F)c(F)c(F)c1F,0,1.4,.,0.3,-11,.,2
COc1cc(/C=C/C(=O)OCC(=O)N(C)Cc2ccccc2)cc(OC)c1OC,-16,6.0,.,-1.3,.,.,6
CC(C(=O)Nc1ccc(S(=O)(=O)N2CCCC2)cc1)N(C)Cc1ccc(F)cc1 (stereo not given),-1,-0.1,.,-3.9,.,.,1
CCOC(CNC(=O)C(=O)NCC(c1ccco1)N1CCN(c2ccc(OC)cc2)CC1)OCC (stereo not given),15,4.9,2.6,-0.1,37,2%,0
CCOc1ccc(CCNC(=O)COC(=O)c2ccc3c(c2)OCCO3)cc1OCC,1,-4.4,?,3.3,-3,-6%,1
CC1(C)CC(=O)C=C(NCC(=O)O)C1,-2,0.4,?,2.5,6,8%,7
Cc1ccc(NC(=O)CN2C(=O)NC3(CCC(C)CC3)C2=O)c(Cl)c1 (stereo not given),2,-1.8,-1.7,-0.1,2,-1%,2
O=[n+]1cc(-c2ccc(Br)cc2)n([O-])c2c1CCC2,-6,1.1,-3.8,5.7,3,3%,-1
CN(C)c1ccc(/C=C/c2nc3ccccc3s2)cc1,.,36*,3.6,0.3,-19,-3%,-23
CSCC[C@H](NC(=O)[C@H]1N2C(=O)c3ccccc3C2SC1(C)C)C(=O)NCc1ccncc1 (stereo not given in full),-3,6.7,-2.8,-1.1,-5,-5%,-2
Cc1cc(C)cc(C(=O)Nc2cc3c4c(c2)CC(=O)N4CCC3)c1,-8,-2.4,0.5,9.0,-3,-6%,-3
CCN1C(=O)c2ccc(C(=O)Nc3nccs3)cc2C1=O,16,-1.6,3.4,1.5,5,18%,-8
COc1ccc(CN2C(=O)C3C4C=CC(C4)C3C2=O)cc1 (stereo not given),100*,-2.0,-1.0,1.9,-16,13%,16
CC(=O)Nc1ccc(OC/C=C(\C)Cl)cc1,-3,-0.5,-1.5,4.6,-5,20%,-9
CC1CCCCN1CCCNC(=O)CN1C(=O)c2cccnc2Oc2ccccc21 (stereo not given),-28,-4.7,?,3.6,3,1%,-2
CSc1ccc(C(=O)C2CCCN(C(=O)CCc3c(C)nn(C)c3C)C2)cc1 (stereo not given),3,-0.1,-0.1,-4.8,-2,-5%,-5
CCNC(=S)N(CCCN(CC)CC)Cc1cc2cc3c(cc2[nH]c1=O)OCO3,-3,1.9,-8.5,-5.8,-1,.,2
COC(=O)/C(C(C)=O)=C(/C=C/C=C/N(C)C)N(C)C,18,-8.8,5.4,0.5,14,16%,-9
CN(CC(CC(=O)Nc1nncs1)c1ccccc1)S(=O)(=O)c1ccc(Br)cc1 (stereo not given),.,6.4,1.2,-2.5,8,-2%,-3
CCN(CC)CCNC(=O)c1cn(CC)c2cc(N3CCN(C)CC3)c(F)cc2c1=O,-29,2.9,-0.5,-1.5,-4,-5%,-7
Cc1c(CCC(=O)O)c(=O)oc2c(C)c3occ(-c4ccc(Br)cc4)c3cc12,24,-1.9,?,-0.9,-5,0%,-4
COC(=O)c1cc(C)nc2c1c(C)nn2-c1ccccc1,4,0.2,.,0.5,.,.,0
CCOc1ccc(-c2nc3ccccc3c(=O)o2)cc1,13,-0.6,-1.1,3.5,-1,0%,9
O=C(Nc1nc2ccc([N+](=O)[O-])cc2s1)c1ccncc1,43,1.3,1.9,-1.4,38,?,13
COc1ccc2c(c1)CCC1=C2NC(=S)NC1c1ccc(N(C)C)cc1 (stereo not given),.,0.2,-1.6,-5.7,4,.,-10
COc1ccc(-n2c(-c3cc(-c4ccccc4)sc3N)n[nH]c2=S)cc1,2,8.6,-0.9,-2.3,1,2%,13
Cc1ccc(C2(C)NC(=O)N(CC(=O)Nc3ccccc3N3CCCC3)C2=O)cc1 (stereo not given),77*,4.3,?,3.3,-3,8%,1
Cc1ccc(S(=O)(=O)N(C)C)cc1NC(=S)Nc1ccc2[nH]c(=O)[nH]c2c1,.,0.5,?,-1.4,5,1%,1
CC1CC(C)CN(CCCNC(=O)C2CCN(c3nnc(-n4cccc4)s3)CC2)C1 (stereo not given),-4,2.4,-1.6,12,0,.,-9
O=C(COC(=O)C1CC(=O)N(Cc2ccccc2)C1)Nc1ccc2c(c1)OCO2 (stereo not given),56,2.4,-6.1,0.6,1,9%,3
CN1CCN(c2ccc(C(=O)c3ccc(Br)cc3)cc2[N+](=O)[O-])CC1,.,0.7,-0.1,-5.1,-27,3%,-4

# Bioassay records as filed in PubChem BioAssay.
